# Assay outcomes as filed in PubChem.
# LANA-H2A inh: blocks KSHV LANA binding to histone H2A/H2B; Q9QR71; cell-free LANA-H2A/H2B peptide, fluorescence polarization; inhibition, % (no concentration beside the values); hit rate 0.6% among 320,000; AID 2629; in the data active = inhibition mostly above about 10%, no sharp cut-off; inactive = mostly below about 6.7%;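 also: stock transfer was 7.5 nL into about 10 µL; 0% = median of vehicle wells and 100% = median of positive control wells; one replicate is shown; the record names a cut of 25% in any replicate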
# RanGTP-Impb inh: inhibitors of RanGTP-importin-beta interaction, primary screen, biochemical, FRET, CFP-Ran, YFP-importin-beta, homogeneous; cell-free CFP-Ran/YFP-importin-beta FRET ratio; inhibition, % (concentration not given with the values); hit rate 1.1% among 300,000; AID 2216;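 active = most replicates above 15%; inconclusive = exactly half above 15%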;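 also: 0% = DMSO wells and 100% = Ran loaded with GDP instead of GTP; wells of about 40 µL received 100 nL stock; the first replicate is given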
# ALR inh: human ALR oxidase inhibition via reduced H2O2 | AID 485317 | purified ALR, DTT oxidation, H2O2 HRP-luminol luminescence | inhibition, % (no concentration beside the values) | P55789 | hit rate 3.8% among 290,000;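 active = mean and each replicate at 75% or more; inconclusive = only one of the two met; inactive = neither met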;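 also: stock transfer was 7.5 nL into about 7.5 µL; 0% = neutral wells and 100% = wells with inactivated enzyme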
# Target sequence (P55789 whole entry, looked up): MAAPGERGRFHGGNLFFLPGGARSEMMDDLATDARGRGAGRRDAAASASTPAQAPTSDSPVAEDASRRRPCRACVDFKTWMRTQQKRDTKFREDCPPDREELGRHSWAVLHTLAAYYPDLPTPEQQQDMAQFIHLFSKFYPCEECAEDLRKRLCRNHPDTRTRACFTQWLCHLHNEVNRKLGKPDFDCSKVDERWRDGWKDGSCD
# Vif A3G: HIV-1 Vif–A3G interaction blockers – biochemical, TR-FRET, GST-Vif 1-94, biotin-A3G peptide, dose response retest, primary screen (AID 1117319); hit rate 0.57% among 260,000; one-dose inhibition, %; IC50 in µM for titrated hits; TR-FRET GST-Vif / biotin-A3G peptide binding; higher % means a stronger effect; test concentration not given here; strong numbers were not always called active;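 active = above the screen mean plus three standard deviations and confirmed in dose response; inconclusive = results disagree or hit not tested in dose response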;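 also: Vif residues 1-94 fused to GST binding biotinylated APOBEC3G peptide 110-148; 0% = full assay without inhibitor and 100% = GST in place of GST-Vif; retest series ran down from 100 µM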
# Beta2AR agonist: activates human beta-2 adrenergic receptor causing internalization | hit rate 0.43% among 340,000 | P07550 | AID 504454 | response, % (concentration not given with the values) | Am2.2-beta2AR cells, FAP receptor internalization, flow cytometry; reference of the scale not given here;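 active = response above a set limit, near 3 SD of response in nonfluorescent compounds, cut at about 42% in these data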;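 also: stock transfer was 100 nL into about 11 µL; a reference agonist was the positive control; negative values mostly stem from fluorescent compounds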
# Target sequence (P07550 whole entry, looked up): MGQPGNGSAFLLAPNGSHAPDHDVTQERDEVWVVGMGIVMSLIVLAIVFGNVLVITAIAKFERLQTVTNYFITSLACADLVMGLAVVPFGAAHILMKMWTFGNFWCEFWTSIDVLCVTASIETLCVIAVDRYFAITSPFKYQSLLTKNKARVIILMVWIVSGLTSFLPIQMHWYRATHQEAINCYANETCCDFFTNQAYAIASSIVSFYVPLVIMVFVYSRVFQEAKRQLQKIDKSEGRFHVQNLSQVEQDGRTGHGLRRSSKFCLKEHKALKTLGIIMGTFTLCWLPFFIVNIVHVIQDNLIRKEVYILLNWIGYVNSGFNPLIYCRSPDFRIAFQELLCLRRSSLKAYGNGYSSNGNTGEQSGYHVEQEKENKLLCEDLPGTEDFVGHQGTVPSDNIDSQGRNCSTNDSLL
# HNF4A DNA FP: change in binding of human HNF4 alpha to DNA; activity change, % at 10 µM; AID 1224865; HNF4a-FITC DNA binding, fluorescence polarization, 1 h; hit rate 0.3% among 360,000; in the data active = activity change above about 30%, passing the limit was not always enough;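 also: controls were the assay level and a saturating level of protein; the project sought stronger binding though the title names inhibitors; some compounds called inactive have numbers as strong as hits; positive values seem to mean higher polarization but the record does not say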
# Target sequence (P41235 whole entry, looked up): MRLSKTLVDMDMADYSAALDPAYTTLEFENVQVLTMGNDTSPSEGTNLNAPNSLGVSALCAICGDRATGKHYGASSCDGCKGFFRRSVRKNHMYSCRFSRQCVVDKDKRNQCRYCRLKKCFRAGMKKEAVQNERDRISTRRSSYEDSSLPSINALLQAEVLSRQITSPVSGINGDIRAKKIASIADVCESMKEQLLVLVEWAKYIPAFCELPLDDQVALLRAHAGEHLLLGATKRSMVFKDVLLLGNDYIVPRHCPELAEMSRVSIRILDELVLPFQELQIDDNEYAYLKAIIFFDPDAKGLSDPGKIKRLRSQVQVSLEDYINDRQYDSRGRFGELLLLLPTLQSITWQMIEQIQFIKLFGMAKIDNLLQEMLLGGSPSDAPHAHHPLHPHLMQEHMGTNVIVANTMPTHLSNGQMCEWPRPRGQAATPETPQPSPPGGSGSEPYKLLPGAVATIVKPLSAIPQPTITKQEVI
# Calb FLC: affects C. albicans growth with fluconazole; C. albicans CaCi-2 (fluconazole-resistant clinical isolate) + fluconazole, Alamar Blue growth, 48 h; growth inhibition, % (concentration not given with the values); hit rate 0.57% among 300,000; AID 1979;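 active = most replicates above 75%; inconclusive = exactly half above 75%; inactive = most below 75%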;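 also: all wells also contain fluconazole at 8 µg/ml as a sub-toxic cotreatment; 0% = median of DMSO wells and 100% = median of geldanamycin control wells; wells of about 8 µL received 7.5 nL stock; the first replicate is given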
# The depositor's hits bear a star; u = inconclusive; x = no result given.
# Order of results – Calb FLC, LANA-H2A inh, Beta2AR agonist, HNF4A DNA FP, ALR inh, RanGTP-Impb inh, Vif A3G
1	Nc1cccc2c1C(=O)N(C(=O)/C=C/c1ccc(F)cc1)C2=O
 : -10.0, -3.6, 87.0*, -6.0, x, 4.9, 22.8%
2	Cc1ccc(C(=O)NCC(=O)OCC(=O)c2ccc3c(c2)NC(=O)CO3)cc1C
 : -2.0, 0.8, 6.1, 2.4, -8.4, -0.8, 0.4%
3	CCN(C(=O)CSc1nnc(-c2ccc(F)cc2)c2ccccc12)C1CCS(=O)(=O)C1 (centres undefined)
 : 6.0, -7.5, -17.0, 2.8, x, 3.1, 3.9%
4	N/C(=N\OC(=O)CCCN1C(=O)c2ccccc2C1=O)c1ccccn1
 : -1.1, -0.1, -3.3, -0.1, -3.0, -2.0, 9.7%
5	C=CCn1c(CNc2ccc(C)cc2)nnc1SCC(=O)N/N=C/c1ccc(O)cc1O
 : 5.6, x, 3.4, 5.2, x, 7.6, 4.6%
6	COc1ccc(C2=CC(c3cc(OC)c(OC)c(OC)c3)NC(=S)N2)cc1 (centres undefined)
 : 2.8, 19.9*, -0.3, 14.2, -13.0, -7.5, 6.6%
7	CCONC(=NC)c1nonc1N
 : -2.3, -3.5, 2.8, 2.3, -9.3, u, 4.9%
8	COc1ccc(S(=O)(=O)N2CCCCC2)cc1NS(=O)(=O)c1cc(Cl)ccc1Cl
 : 10.1, -3.8, -2.3, -2.2, 29.2, 0.1, x
9	COc1ccc(NC(=O)C(=O)NCCCO)cc1Cl
 : 2.0, -6.9, -1.3, -2.2, -0.8, -0.8, -2.0%
10	CC(C)(C)NC(=O)NC(=O)COC(=O)CCC1CCCC1
 : -1.6, -1.2, 5.8, 3.5, -2.7, 6.2, x

# Following part.
# Order of results – Calb FLC, LANA-H2A inh, Beta2AR agonist, HNF4A DNA FP, ALR inh, RanGTP-Impb inh, Vif A3G
11	Cc1cccc(CN2CCC(CNC(=O)CSc3cc(=O)n(C)c4cc(Cl)ccc34)CC2)c1
 : -12.1, -3.9, -21.0, 6.2, -1.1, 0.3, 1.4%
12	COC(=O)C(N)Cc1ccc(Cl)cc1 (centres undefined)
 : x, -2.7, 6.1, -0.2, -16.9, x, x
13	CC(C(=O)NC1CCCC1)N(Cc1ccco1)C(=O)c1snc(C(=O)NC2CCCC2)c1N (centres undefined)
 : -28.8, -2.8, 16.9, 1.0, 9.1, 2.7, 10.6%
14	COC(=O)C1N[C@@H]([C@@H](NC(=O)COc2ccccc2)C(=O)NCc2ccsc2)SC1(C)C (some centres undefined)
 : -17.3, -3.8, 5.1, -4.0, -5.3, -5.3, x
15	COc1ccc(S(=O)(=O)N2CC(C)OC(C)C2)cc1C(=O)N1CCCCC1 (centres undefined)
 : -0.5, -7.3, -2.0, 0.2, 2.9, 1.4, x
16	O=C(Cc1ccccc1)Nc1ccc(NC(=O)c2ccco2)nc1
 : -3.2, -4.5, 2.9, -0.7, 0.3, 5.2, -0.1%
17	COc1ccc(NCc2nnc(SCC#N)n2-c2ccccc2OC)cc1
 : -6.5, -1.1, -4.4, -4.1, x, -0.9, 9.1%
18	CN(C)c1nc(Cl)cc(N2CCOCC2)n1
 : 1.5, 0.7, 3.8, 1.9, 0.0, 0.8, -6.5%
19	CN(C)S(=O)(=O)Oc1ccc(C(=O)Nc2cccc(Cl)c2)cc1
 : 9.6, -5.0, 3.0, -0.6, 1.0, 0.2, -2.2%
20	C/C(=N\Nc1ccccn1)c1cccs1
 : -10.7, -1.6, 10.3, 0.9, 99.1*, 2.5, x

# Next part
# Order of results – Calb FLC, LANA-H2A inh, Beta2AR agonist, HNF4A DNA FP, ALR inh, RanGTP-Impb inh, Vif A3G
21	COc1ccc(/C=N/Nc2cc(C)nc3ccc(OC)cc23)c(OC)c1
 : -31.3, 5.5, -1.8, 16.6, 85.7*, 20.1*, x
22	CCN(CC)CCCNC(=O)c1oc2ccc(S(=O)(=O)N3CC(C)CC(C)C3)cc2c1C (centres undefined)
 : -2.8, 7.8, 11.5, -0.1, -2.7, -2.6, x
23	O=C(O)c1ccc(-n2nnc3ccccc32)c([N+](=O)[O-])c1
 : -1.1, 0.2, -1.5, -2.5, x, 0.2, -8.8%
24	O=C(Nc1cccnc1)c1noc2c1CCCCC2
 : -7.8, -2.4, 1.5, -1.9, -0.9, -4.4, 5.6%
25	COc1ccc(NC(=O)CN(C)CC(=O)N(CC(C)C)c2c(N)n(CC(C)C)c(=O)[nH]c2=O)cc1
 : x, -5.8, 7.8, -3.7, x, x, x
26	COC(=O)c1cccc(NC(=O)c2ccc[n+]([O-])c2)c1
 : 2.8, 1.2, 12.1, 3.8, 3.5, 1.8, x
27	O=C(Cc1ccccc1)N1CCNCC1
 : 17.9, -0.3, -1.1, 0.7, -7.3, 2.6, -2.7%
28	Cc1c(C(=O)N2CCN(c3ccccc3)CC2)oc2c(Cl)cccc12
 : x, -9.4, -2.9, 1.2, 21.7, x, -4.9%
29	Cc1cc(Nc2ccc(F)c(Cl)c2)n2nc(C)nc2n1
 : 12.4, -1.8, -17.5, 1.4, -8.9, u, 20.5%
30	CCOc1ccc(/C=C2\SC(N3CCCCC3)=NC2=O)cc1
 : 23.1, 1.2, -12.3, 2.0, -6.0, 2.1, -6.8%

# Arranged by value in Vif A3G (low to high): 4 of the compounds above.
no.	smiles	Vif A3G
28	Cc1c(C(=O)N2CCN(c3ccccc3)CC2)oc2c(Cl)cccc12	-4.9%
27	O=C(Cc1ccccc1)N1CCNCC1	-2.7%
24	O=C(Nc1cccnc1)c1noc2c1CCCCC2	5.6%
29	Cc1cc(Nc2ccc(F)c(Cl)c2)n2nc(C)nc2n1	20.5%

# Following part:
# Order of results – Calb FLC, LANA-H2A inh, Beta2AR agonist, HNF4A DNA FP, ALR inh, RanGTP-Impb inh, Vif A3G
31	NS(=O)(=O)c1ccc(NC(=O)COC(=O)c2ccco2)cc1
 : 5.1, 1.0, 4.0, -2.1, x, -5.0, 7.3%
32	COc1ccc(Cl)cc1NC(=O)Nc1cccc([N+](=O)[O-])c1C
 : -5.6, 1.1, -1.6, -0.9, -2.9, 2.3, 11.4%
33	CC(C)(C)c1ccc(C(=O)c2cn[nH]c2-c2ccccc2O)cc1
 : 37.6, -10.4, -5.5, 4.7, 20.6, 1.5, -14.3%
34	Cc1c(Cl)cccc1NC(=O)NN1CCN(C)CC1
 : 5.2, 0.6, -4.4, 1.4, -15.9, -3.0, x
35	CCCCN1C(=O)C(=O)NC[C@@H]1C(C)O (some centres undefined)
 : 1.5, 1.6, 2.0, -4.3, 5.2, -2.3, 13.9%
36	Cc1oc(C)c2c(=O)ccc3c(c12)OC(N)=C(C#N)C3c1ccc(F)cc1 (centres undefined)
 : 9.9, 3.2, -195.9, 17.6, -1.6, 2.1, 14.9%
37	CCCc1cc(Nc2cccc(OCC)c2)n2ncnc2n1
 : 0.3, 1.0, 48.9*, 2.1, 0.4, -0.6, 0.5%
38	O=C(N1CCC(n2nc(-c3ccccc3)oc2=O)CC1)C1(c2ccc(Cl)cc2)CC1
 : 23.8, 1.5, 4.8, -0.5, 1.9, -3.9, -4.1%
39	Cc1ccccc1N(C(=O)c1csnn1)C(C(=O)NC(C)(C)C)c1cccs1 (centres undefined)
 : 16.4, 3.2, 5.2, -3.1, -6.5, -1.7, 3.4%
40	CCOC(=O)c1c(NC(=O)CSc2ncnc3ccccc23)sc(C(C)=O)c1C
 : x, 2.7, 1.4, 0.3, 10.5, x, -2.5%

# (continued)
# Order of results – Calb FLC, LANA-H2A inh, Beta2AR agonist, HNF4A DNA FP, ALR inh, RanGTP-Impb inh, Vif A3G
41	CCOC(=O)C1(Cc2cccc(Cl)c2)CCCN(C(=O)CCSC)C1 (centres undefined)
 : 3.2, -4.4, 2.5, 0.6, 2.9, 3.2, x
42	Cc1nnc2sc(SCC(=O)N3CCC(C)CC3)nn2c1=O
 : -2.2, 4.3, 0.7, -0.8, 46.3, 2.5, 2.5%
43	O=C(CSc1nnc2ccccn12)c1ccccc1
 : 9.2, 1.0, -3.7, -3.4, x, -2.6, 15.3%
44	COc1ccc(N2CC(C(=O)Nc3nnc(SCC(=O)c4ccccc4)s3)CC2=O)cc1 (centres undefined)
 : 13.6, -0.1, -24.7, -4.1, -4.5, 0.8, x
45	COc1cccc(CN(C)C(=O)CN2C(=O)NC3(CCCc4ccccc43)C2=O)c1 (centres undefined)
 : x, -1.9, -15.5, -5.3, -2.2, x, 0.3%
46	CS/C(N)=N/N=C/c1ccc([N+](=O)[O-])cc1
 : -7.8, -2.3, -0.6, 3.2, -4.4, 2.9, 9.7%
47	COC(=O)[C@H](Cc1ccccc1)NC(=O)NCc1ccccc1
 : -3.4, 1.6, 8.5, 4.2, 4.8, -0.4, 6.0%
48	Cc1ccc(-n2ncc3c(NCc4cccnc4)ncnc32)cc1C
 : 2.5, -1.7, 3.0, -2.9, 0.8, 2.2, -0.1%
49	COc1cccc(CC(=O)OCC(=O)Nc2c(C)nn(-c3ccccc3)c2C)c1
 : x, x, -3.3, 0.3, x, x, 2.2%
50	Cc1ccc(NCc2ccco2)cc1C
 : -22.5, 2.4, 6.0, 2.5, x, -4.9, x

# Nothing new here: entries from further up.
# Order of results – Calb FLC, LANA-H2A inh, Beta2AR agonist, HNF4A DNA FP, ALR inh, RanGTP-Impb inh, Vif A3G
41	CCOC(=O)C1(Cc2cccc(Cl)c2)CCCN(C(=O)CCSC)C1 (centres undefined)
 : 3.2, -4.4, 2.5, 0.6, 2.9, 3.2, x
42	Cc1nnc2sc(SCC(=O)N3CCC(C)CC3)nn2c1=O
 : -2.2, 4.3, 0.7, -0.8, 46.3, 2.5, 2.5%

# Next results follow:
# Order of results – Calb FLC, LANA-H2A inh, Beta2AR agonist, HNF4A DNA FP, ALR inh, RanGTP-Impb inh, Vif A3G
51	COc1ccc(S(=O)(=O)NNC(=O)C(=O)NNc2ccccn2)cc1
 : -0.5, 2.5, 2.9, -0.7, x, 3.4, 22.6%
52	Cc1cccnc1NC1(C(F)(F)F)N=C2SCCN2C1=O (centres undefined)
 : 5.3, 1.8, 3.6, 4.2, -4.6, -0.5, 26.4%
53	CCOc1ccc(-c2cccc(NS(=O)(=O)c3ccc([N+](=O)[O-])cc3)c2)nn1
 : 31.0, 1.9, 0.8, 0.3, -27.5, -3.4, -5.9%
54	COc1ccc(/C=N/NC(=O)c2ccc(OC)c(OC)c2)cc1COc1c(F)c(F)c(F)c(F)c1F
 : -8.1, -4.7, 12.9, 0.8, -0.6, x, x
55	COc1ccc(C2N(c3ccc(OC)cc3)C(=O)C3CCCN32)cc1 (centres undefined)
 : 0.6, -5.9, 4.4, 0.7, -27.9, u, -2.4%
56	CCc1ccc(C(=O)N/N=C(\C)c2cccnc2)s1
 : -5.2, -2.7, -9.2, 9.6, u, -2.3, x
57	CC(C)C1=NN(C(=O)c2ccccc2)C(O)(C(C)(C)C)C1 (centres undefined)
 : 7.4, -3.0, 3.1, 1.6, 5.9, -1.6, 2.9%
58	Cn1c(CCNC(=O)c2ccc(Cl)cc2)n[nH]c1=S
 : -4.0, 7.1, -5.5, -0.3, 96.4*, -2.2, 4.1%
59	O=C(CCNC(=O)c1ccc(Br)o1)NCc1ccc(Cl)cc1
 : -9.5, -6.1, -5.6, 1.5, -7.6, -10.1, u
60	CSc1nc2ccc3nc(NC(=O)c4ccccc4)sc3c2s1
 : 3.6, -0.4, -3.6, 3.4, x, 1.1, 64.7%

# Individual results from the entries so far.
# CC(C)C1=NN(C(=O)c2ccccc2)C(O)(C(C)(C)C)C1 (centres undefined) | RanGTP-Impb inh = -1.6
# COc1ccc(C2=CC(c3cc(OC)c(OC)c(OC)c3)NC(=S)N2)cc1 (centres undefined) | Vif A3G = 6.6%
